Screening data from PubChem.
HPGD inh – qHTS Assay for Inhibitors of HPGD (15-Hydroxyprostaglandin Dehydrogenase). 15-hydroxyprostaglandin dehydrogenase [NAD(+)] (Homo sapiens), P15428. 4.3% of 150,000 active. purified HPGD, NADH fluorescence kinetic, PGE2 substrate. Potency, µM, for inactives: at the top dose activity change, negative = inhibition, usual class: inhibitors; active = well fitted inhibition curve with a large enough effect (not every such curve was filed as active); inconclusive = small, poorly fitted or top-dose-only effect, or another doubt; inactive = no such curve, though single readings can be large or run the other way;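 also: top concentration of the series not given in the record; plate controls included wells without enzyme; inactives centre near -10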
Target sequence (P15428 whole entry, looked up): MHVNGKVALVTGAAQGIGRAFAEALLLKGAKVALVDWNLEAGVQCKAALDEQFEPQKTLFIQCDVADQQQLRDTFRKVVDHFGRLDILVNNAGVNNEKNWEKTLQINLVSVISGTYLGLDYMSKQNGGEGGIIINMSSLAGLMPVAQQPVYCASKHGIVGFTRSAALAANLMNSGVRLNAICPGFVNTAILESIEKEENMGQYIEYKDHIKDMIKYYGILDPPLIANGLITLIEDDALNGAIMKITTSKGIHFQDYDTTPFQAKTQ
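20 nM HPGD preincubated 15 min at room temperature with compound in 50 mM Tris-HCl pH 8, 0.01% Tween 20. Started with 1 mM NAD+ and 30 uM prostaglandin E2; NADH fluorescence (360/450 nm) read 5 times over 30-s intervals, last minus first.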
Numbers without * were called inactive; & = joins results of further samples; [ ] = remark or other dose. % is scaled to controls: 0 for no effect and ±100 for the full control effect; potency is read from the fitted curve at half-maximal effect. The list is partial, so the mix of outcomes need not match the whole.

Screening Cc1cc(C)c(NC(=O)CN2C(=O)NC3(CCCCC3)C2=O)c(Cl)c1 returned HPGD inh -4%.
CCOc1ccc(-c2c(C(=O)N/N=C/c3ccc(OC)cc3)nnn2-c2nonc2N)cc1 was read as HPGD inh inconclusive.
Screening CCOC(=O)c1c(NCc2ccc3c(c2)OCO3)c2ccccc2[nH]c1=O returned HPGD inh -9%.
Cc1ccc(CNC(=O)CCNS(=O)(=O)c2cccs2)cc1 was read as HPGD inh -32%.
`CCc1ccc(NC(=O)c2cnn(-c3ccccc3)c2C)cc1` gave HPGD inh 2.5µM*.
`O=C(Nc1ccccc1)N1CCC2(CCNCC2)CC1` gave HPGD inh -5%.
For CCCCC(=O)Nc1cccc(NC(=O)C(C)C)c1 the results were HPGD inh -7%.
Screening CCOC(=O)c1c(C)nc2sc3c(c2c1-c1ccc(OC)cc1)NC(c1ccccc1)NC3=O (stereo not given) returned HPGD inh 121%[activator].
For Cc1oc(-c2ccccc2F)nc1CS(=O)(=O)CC(=O)N1CCCCCC1 the results were HPGD inh -6%.
Screening COc1cccc(C(=O)/C=C/Nc2ccc(S(=O)(=O)Nc3cnc4ccccc4n3)cc2)c1 returned HPGD inh inconclusive.
For CCn1c(SCC(=O)Nc2ccc3c(c2)OCCO3)nnc1-c1ccccn1 the results were HPGD inh -6%.
`Cn1c(/C=C/c2ccc([N+](=O)[O-])o2)nc2ccccc2c1=O` gave HPGD inh -7%.
Screening Oc1cccc(/C=N/Nc2cc(N3CCOCC3)nc(N3CCOCC3)n2)c1 returned HPGD inh -26%.
For C=CCn1c(SCC(=O)NCc2ccc3c(c2)OCO3)nnc1C1CCCCC1 the results were HPGD inh -1%.
For CC1=NNC(=O)C1CCC(=O)N/N=C/C=C/c1ccccc1 (stereo not given) the results were HPGD inh -6%.
Screening COc1cc(/C=N/NC(=S)NC(C)C)ccc1OCC(=O)Nc1c(C)cc(C)cc1C returned HPGD inh inconclusive.
Cc1ccc2nc(-c3cccnc3)c(NC3CCCC3)n2c1 was read as HPGD inh -8%.
`COc1cc(C(=O)Oc2cc(C)cc(C)c2)cc(OC)c1OC` gave HPGD inh -5%.
`Cc1ccc(SCN2CCCCC2)cc1` (tested in a mixture with another compound) gave HPGD inh -14%.
For CC(NCCc1ccc(O)cc1)C(O)c1ccc(O)cc1 (stereo not given) the results were HPGD inh -11%&4%.
Screening O=C1c2ccccc2C(=O)N1CC1c2ccccc2CCN1S(=O)(=O)c1ccccc1 (stereo not given) returned HPGD inh -11%.
`Cc1cccn2cc(CSc3ccccc3N)nc12` gave HPGD inh -3%.
`Cc1nccn1-c1ncnc2sc3c(c12)CCCC3` gave HPGD inh -7%.
Cc1ccc2cc(C)c(N3CCN(c4ccccn4)CC3)nc2c1 was read as HPGD inh inconclusive.
Screening CC(C)CCNC(=O)CN(C(=O)Cn1nnc(-c2ccc(F)cc2)n1)C1CCCC1 returned HPGD inh -10%.
C[C@H]1Cc2c(-c3ccccc3)nc3c(c2CO1)CN(C(=O)c1cccnc1)CC3 was read as HPGD inh 0%.
For O=C(c1ccccc1)N(Cc1cccnc1)C1(C(=O)Nc2ccccc2)CCCCC1 the results were HPGD inh -17%.
`COc1ccc2c(c1)[nH]c1c(=O)n(Cc3ccccn3)cnc12` gave HPGD inh -17%.
For COc1ccc([N+](=O)[O-])cc1NC(=O)CSc1ccccc1 the results were HPGD inh inconclusive.
Fc1ccc(CNC(=S)Nc2cccc(C(F)(F)F)c2)cc1 was read as HPGD inh inconclusive.
`CC(C)N(C)NC(=S)Nc1ccccc1` gave HPGD inh 2%.
Screening Cc1c(Cl)ccc2c1NC(=O)[C@]21[C@@H]2C(=O)N(Cc3ccccc3)C(=O)[C@@H]2[C@@H]2CCCN21 returned HPGD inh -27%.
`Cc1ccc(N2C(=O)c3ccc(C(=O)Nc4cccnc4)cc3C2=O)c(C)c1` gave HPGD inh -7%.
For CC(C)c1ccc(/C=N/Nc2cc(N3CCOCC3)nc(N3CCOCC3)n2)cc1 the results were HPGD inh -17%.
For Cc1cc(C)n(S(=O)(=O)c2cc(Cl)ccc2Cl)n1 the results were HPGD inh -12%.
CC(=O)c1c(C)nn(C(=O)c2cccs2)c1C was read as HPGD inh -23%.
For COc1ccc(C(C(=O)NC2CCCC2)N(C(=O)c2ccco2)c2ccc(OC)c(OC)c2)cc1 (stereo not given) the results were HPGD inh -12%.
For CCc1c(C)c(C#N)c2nc3ccccc3n2c1Nc1c(C)n(C)n(-c2ccccc2)c1=O the results were HPGD inh 0%.
`CC(C)N1CC=C2C(C#N)=C(N)C(C#N)(C#N)C(c3ccccc3)C2C1` (stereo not given) gave HPGD inh inconclusive.
For COc1cc2c(cc1OC)CN(CC(=O)Nc1ccccc1C#N)CC2 the results were HPGD inh -19%.
CC(C)CN(C(=O)COC(=O)CCc1c[nH]c2ccccc12)C1CCS(=O)(=O)C1 (stereo not given) was read as HPGD inh -12%.
For C=C(C)C1CC=C(C)/C(=N/NC(=O)COc2cccc(C)c2)C1 (stereo not given) the results were HPGD inh -10%.
Screening COc1cc(C(=S)N(C)C)ccc1O returned HPGD inh 18µM*.
COCCn1cc(C(=O)N2CCCC(C)C2)c2c3ccccc3n(C)c2c1=O (stereo not given) was read as HPGD inh inconclusive.
O=c1c2ccccc2ncn1Cc1nc2ccccc2s1 was read as HPGD inh 0%.
Screening Cc1cc(C)c2cc(C(c3nnnn3C3CCCC3)N3CCOCC3)c(=O)[nH]c2c1 (stereo not given) returned HPGD inh inconclusive.
COc1cc(NC(=S)NN2CCN(C)CC2)cc(OC)c1 was read as HPGD inh -4%.
COc1ccc2[nH]cc(CCNc3nc(-c4ccoc4)nc4ccccc34)c2c1 was read as HPGD inh -9%.
O=C(NCCO)c1c(O)c2cccc3c2n(c1=O)CC3 was read as HPGD inh -17%.
Screening COC(=O)c1ccc(C23CC4(C2)[C@H](CN(CC2CCCCC2)[C@@H]4c2ccccc2)C3c2ccc(Cl)nc2)cc1 (stereo not given in full) returned HPGD inh -8%.
For COc1cc(OC)cc(C(=O)Nn2cc(C(=O)Nc3ccccc3F)c3ccccc3c2=O)c1 the results were HPGD inh -16%.
CC(C)(O)C#CC#CCN1CCOCC1 was read as HPGD inh -7%.
CCCCCCCOc1ccc(OC(=O)c2ccncc2)cc1 was read as HPGD inh -17%.
Screening O=C(c1ccc2c(c1)OCO2)N1CCc2ccccc2C1 returned HPGD inh 0.45µM*.
Screening O=C(Cn1nc(Cc2cccnc2)c2ccccc2c1=O)NCCCN1CCCC1=O returned HPGD inh -5%.
Screening COCCCn1c(SCC(=O)N2CCCC(C)C2)nnc1-c1ccco1 (stereo not given) returned HPGD inh -6%.
For CCOc1ccc(-c2n[nH]c(C(=O)NN)c2C)cc1 the results were HPGD inh -16%.
`O=C(O)c1ccc(Cn2cc(Cl)cn2)cc1` gave HPGD inh -5%.
`O=C(c1cc([N+](=O)[O-])ccc1N1CCCCC1)N1CCCC1` gave HPGD inh -4%.
`O=C(c1cc(C2CC2)on1)N1CCN(c2ccccc2)CC1` gave HPGD inh -24%.
For CCS(=O)(=O)n1nc(-c2ccc(C)cc2)nc1N the results were HPGD inh -6%.
Screening CC(=O)Nc1cccc(NC(=O)CSc2nnnn2Cc2ccccc2)c1 returned HPGD inh -8%.
CCOC(=O)c1nn(-c2ccc3c(c2)CCN3C(C)=O)cc1O was read as HPGD inh inconclusive.
For OCCNCCO the results were HPGD inh -14%.
`Cc1ccc2oc(-c3ccc(C)c(NC(=O)Cc4cccs4)c3)nc2c1` gave HPGD inh inconclusive.
For COc1ccccc1N(CC(=O)NC(C)(C)C)S(=O)(=O)c1cccs1 the results were HPGD inh -15%.
Screening CSc1nc(C)c(CCOC(=O)c2ccccc2)c(=O)[nH]1 returned HPGD inh -16%.
Screening S=c1nc(-c2ccco2)[nH][nH]1 returned HPGD inh 22µM*.
O=C(O)C/C(=C\c1ccccc1)C(=O)O was read as HPGD inh -14%.
Screening CCOc1ccc2nc(/N=C/c3c(C)[nH]n(-c4ccccc4)c3=O)sc2c1 returned HPGD inh -26%.

Molecules listed so far with two or more sulfur atoms:
Cc1ccc(CNC(=O)CCNS(=O)(=O)c2cccs2)cc1 was read as HPGD inh -32%.
For COc1ccccc1N(CC(=O)NC(C)(C)C)S(=O)(=O)c1cccs1 the results were HPGD inh -15%.

Sorted by length of the SMILES (descending): 5 of the compounds above.
C[C@H]1Cc2c(-c3ccccc3)nc3c(c2CO1)CN(C(=O)c1cccnc1)CC3 was read as HPGD inh 0%.
For CCn1c(SCC(=O)Nc2ccc3c(c2)OCCO3)nnc1-c1ccccn1 the results were HPGD inh -6%.
Cc1ccc2cc(C)c(N3CCN(c4ccccn4)CC3)nc2c1 was read as HPGD inh inconclusive.
COc1cc(NC(=S)NN2CCN(C)CC2)cc(OC)c1 was read as HPGD inh -4%.
CC(=O)c1c(C)nn(C(=O)c2cccs2)c1C was read as HPGD inh -23%.

6 successive entries already listed, quoted:
`Cc1nccn1-c1ncnc2sc3c(c12)CCCC3` gave HPGD inh -7%.
Cc1ccc2cc(C)c(N3CCN(c4ccccn4)CC3)nc2c1 was read as HPGD inh inconclusive.
Screening CC(C)CCNC(=O)CN(C(=O)Cn1nnc(-c2ccc(F)cc2)n1)C1CCCC1 returned HPGD inh -10%.
C[C@H]1Cc2c(-c3ccccc3)nc3c(c2CO1)CN(C(=O)c1cccnc1)CC3 was read as HPGD inh 0%.
For O=C(c1ccccc1)N(Cc1cccnc1)C1(C(=O)Nc2ccccc2)CCCCC1 the results were HPGD inh -17%.
`COc1ccc2c(c1)[nH]c1c(=O)n(Cc3ccccn3)cnc12` gave HPGD inh -17%.

(listing goes on)
Cc1cc(OCCCCN2C(=O)NC(C)(C)C2=O)cc(C)c1Cl was read as HPGD inh -4%.
`Cc1nn(-c2cc(N3CCCCC3)ccc2N)c(=O)c2ccccc12` gave HPGD inh 4%.
For CCc1nnc(NC(=O)CCC(=O)N2CCN(Cc3ccccc3)CC2)s1 the results were HPGD inh -13%.
Cc1nc(-c2ccc(NC(=O)CC(C)C)cc2)cs1 was read as HPGD inh -25%.
For C=CCOC(=O)/C(=C\c1ccccc1)NC(=O)c1ccco1 the results were HPGD inh -10%.
For O=C(CCC1CCCC1)Nc1nnc(-c2ccc3c(c2)OCO3)s1 the results were HPGD inh inconclusive.
For N#Cc1c(N)nc2c(c1N)CC(CO)O2 (stereo not given) the results were HPGD inh -1%.
`COC(=O)[C@@]1(Cc2ccc(OC)cc2)[C@H]2c3cc(C(=O)N4CCCC4)n(C[C@H](O)CO)c3C[C@H]2CN1C(=O)c1ccccc1` gave HPGD inh -6%.
c1cnc(N2CCN(c3nc4ccccc4n4cnnc34)CC2)nc1 was read as HPGD inh -14%.
COc1cccc(NC(=O)N(Cc2ccco2)C(C)c2cccs2)c1 (stereo not given) was read as HPGD inh -18%.
CS(=O)(=O)N(CC(=O)NCc1ccco1)Cc1ccc(Cl)cc1 was read as HPGD inh -18%.
Screening Cc1cc(=O)[nH]c(SCC(=O)c2ccccc2)c1C#N returned HPGD inh inconclusive.
O=C(CCn1[nH]c(=O)c2ccccc2c1=O)OC1CCCCC1 was read as HPGD inh inconclusive.
Screening CCNc1nc(N)nc(Oc2ccc(C(=O)OC)cc2)n1 returned HPGD inh 0%.
COCCNC(=O)c1ccc(N2CCCCC2)c(NS(=O)(=O)c2ccc(C)cc2)c1 was read as HPGD inh -19%.
COc1ccc(CN(C)C(C)C(=O)Nc2ccc([N+](=O)[O-])cc2Cl)cc1OC (stereo not given) was read as HPGD inh -15%.
Screening COc1ccc(OCCCc2c(C)n[nH]c2C)cc1 returned HPGD inh -10%.
Screening N#Cc1c(Nc2ccccc2)c(/C=N/N=C/c2ccccc2)c[nH]c1=O returned HPGD inh -9%.
For COc1ccc(S(=O)(=O)N2CCCC2C(=O)Nn2cnnc2)cc1 (stereo not given) the results were HPGD inh 0%.
`COc1cc(/C=C(\C#N)c2nc3ccccc3[nH]2)cc(Br)c1OCc1ccccc1` gave HPGD inh -25%.
`N#CC(Cc1ccccc1OC(F)F)c1nc2ccccc2[nH]1` (stereo not given) gave HPGD inh -3%.
Cc1cccc(C(=O)O/N=C(\N)Cc2ccc([N+](=O)[O-])cc2)c1 was read as HPGD inh -22%.
`Cc1ccc(-c2cc(C#N)c(=O)n(Cc3c(Cl)cccc3Cl)c2)cc1` gave HPGD inh inconclusive.
Screening COc1ccc(-c2cc(=O)n(-c3ccc([N+](=O)[O-])cc3)[nH]2)cc1 returned HPGD inh -20%.
`COC(=O)Cc1c(C)nc2nc(NCc3c(F)cccc3Cl)[nH]n2c1=O` gave HPGD inh -13%.
For O=C(NC1CCN(Cc2ccccc2)CC1)C1CCN(S(=O)(=O)c2cccc3nsnc23)CC1 the results were HPGD inh -14%.
Screening COc1ccc([N+](=O)[O-])cc1NC(=O)C(C)Sc1ccccc1 (stereo not given) returned HPGD inh -19%.
O=C(NC1CCCC1)C(c1ccc(O)cc1)N(CC1CCCO1)C(=O)C1COc2ccccc2O1 (stereo not given) was read as HPGD inh -3%.
Screening CCC(=O)N(CC)c1nc(-c2ccc(OC)cc2)cs1 returned HPGD inh -19%.
Screening COc1ccc(/C(O)=C2/C(=O)C(=O)N(CCN(C)C)C2c2ccccc2)cc1Cl (stereo not given) returned HPGD inh -11%.
For Cc1ccc2oc(=O)n(CCOc3ccccc3Cl)c2c1 the results were HPGD inh -3%.
Screening COC(=O)c1sc2ncccc2c1OCc1ccccc1Cl returned HPGD inh inconclusive.
`O=C(COC(=O)c1ccc(=O)n(Cc2ccccc2)n1)Nc1ccc2c(c1)OCCO2` gave HPGD inh -19%.
`COc1ccc(NC(=O)CSc2nccn2-c2cccc(OC)c2)cc1` gave HPGD inh -6%.
`CN(C)CCCOc1cccc(Oc2ccccc2)c1` gave HPGD inh -4%.
